High-throughput results: PubChem, National Center for Advancing Translational Sciences (NCATS)
TRPML1 inh: blocks the human TRPML1 channel; actives 0.02% (n = 390,000); Q9GZU1; activity change, negative = inhibition, % (no concentration beside the values); TRPML1-inducible cells, Ca2+ dye fluorescence, FDSS; hits give low values; inhibition of EC80 agonist-evoked calcium signal; in the data active means activity change below about -50%; inconclusive means about -30% to -50%; inactive means above about -30%;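 further: stimulus is agonist 54-4 at its EC80 concentration; on the % scale 0 is the no-effect control and ±100 the full control effect; compound concentration not given in the record; the text of the record puts the active cut at -80%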
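Calcium fluorescence in TRPML1-DL cells induced overnight with Tet: a 110 s read after compound pin addition, then a 110 s antagonist read after challenge with 54-4 at 4 uM final (EC80).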
ClpP mod: qHTS Assay for Activators of ClpP; actives 1.9% (n = 340,000); Potency, µM (doses to about 57.5 µM), without a hit: at the top dose activity change, negative = active; purified B. subtilis ClpP, FRET peptide cleavage, 20 min; AID 651965, 2013; ATP-dependent Clp protease proteolytic subunit (Bacillus subtilis (strain 168)), P80244; active = well fitted falling curve with a large enough effect; inconclusive = small, poorly fitted or top-dose-only effect; inactive = no such curve, though single readings can be large or run the other way; further: potency means the concentration at half of the fitted maximal effect; the source files actives as falling curves though it sought activators and does not explain the sign; nearly all actives have a fitted effect of over 65% in size; many hits overshoot -100%
Target sequence (P80244 whole entry, looked up): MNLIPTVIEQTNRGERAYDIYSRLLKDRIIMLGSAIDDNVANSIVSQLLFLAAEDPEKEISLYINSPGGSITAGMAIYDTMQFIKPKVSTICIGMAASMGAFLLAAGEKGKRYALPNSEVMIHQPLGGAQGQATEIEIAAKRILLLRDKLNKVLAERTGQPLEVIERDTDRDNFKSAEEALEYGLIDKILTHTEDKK
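FRET quenching reversal measured ClpP activation: 10 microg/mL B. subtilis ClpP at pH 8 with the FRET-FV decapeptide, read at 430 nm after 320 nm excitation. The 20-min minus 0-min signal was scaled between DMSO/no-enzyme wells and ADEP (5.8 microM final).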
PINK1 expr mod: changes PINK1 expression; PINK1 immunofluorescence, high-content cytometry, 24 h; Potency, µM (top dose mostly 76.6 µM), without a hit: at the highest dose activation (PINK1 increase), hits mostly activators; actives 0.2% (n = 410,000); AID 624263; active = well fitted activation curve with a large enough effect; inconclusive = small, poorly fitted or top-dose-only effect; inactive = flat fitted curve, though single readings scatter; cell line not stated here;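 further: potency means the concentration at half of the fitted maximal effect; % of control where 0% means no effect; nearly all actives have a fitted effect of over 65% in size; a mitochondrial uncoupler was the plate control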
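PINK1 protein level read as immunofluorescence by microplate cytometer in a fixed, stained stable cell line after 24 h exposure to five compound concentrations, with CCCP as control.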
Menin MLL FP FL: menin-MLL binding inhibition, fluorescein peptide; Fluorescence polarization, fluorescein-MLL peptide displacement from menin; 290,000 tested, under 10 active; FP activity change, % at 61.4 µM; AID 1766; inconclusive = falling polarisation curve, or a change in total fluorescence; inactive = total fluorescence flat and polarisation flat or rising; no compound was filed as active; the % refers to the polarisation; negative = inhibition;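 further: % of control where 0% means no effect; inhibitors lower the polarisation; unlabelled MLL peptide was the positive control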
Sfp PPTase inh: inhibitors of Bacillus subtilis Sfp phosphopantetheinyl transferase | Biochemical Sfp PPTase activity, qHTS | Potency, µM, for inactives: max response, negative = inhibition, hits mostly inhibitors | actives 3.5% (n = 310,000) | AID 1490; active means well fitted inhibition curve with a large enough effect; inconclusive means small, poorly fitted or top-dose-only effect, or another doubt; inactive means no such curve, though single readings can be large or run the other way;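 further: the enzyme is Sfp with the accession as filed and its product quenches rhodamine fluorescence; potency means the concentration at half of the fitted maximal effect; 0% = enzyme reaction without inhibitor and -100% = no enzyme wells; top concentration of the series not given in the record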
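Compounds were incubated with enzyme (final 15 nM) for 15 min at room temperature before substrate addition started the reaction. Fluorescence at 525 nm excitation, 598 nm emission was recorded immediately and after 30 minutes.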
TRPML1 ag: activates the human TRPML1 channel; AID 624414; activation, % (concentration not given with the values); Q9GZU1; TRPML1-expressing cells, Ca2+ dye fluorescence, FDSS; host cell line not named in the record; reference of the full effect not given here; actives 0.12% (n = 410,000); in the data active = activation above about 50%; inconclusive = about 30% to 50%; inactive = below about 30%; further: 0% is about no effect; the text of the record puts the active cut at 80%
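Tet-induced TRPML1-DL cells, 1,500 per well, cultured overnight, were loaded with a no-wash Ca2+ dye for 45–90 min. Calcium fluorescence was recorded on the FDSS for 110 s after compound addition, before the EC80 agonist (4 uM 54-4) was added.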
TRPV1 potentiator: enhances activation of the human vanilloid receptor TRPV1; Q8NER1; potentiation, % at 8.33 µM; TRPV1-expressing cells, Fluo-8 calcium influx, capsaicin EC20 potentiation; host cell line not named in the record; control for the full effect not named in the record; AID 540277; actives 0.02% (n = 320,000); active means potentiation above 80%; inconclusive means 30% to 80%; inactive means below 30%; further: 0% is about no effect
Target sequence (Q8NER1 whole entry, looked up): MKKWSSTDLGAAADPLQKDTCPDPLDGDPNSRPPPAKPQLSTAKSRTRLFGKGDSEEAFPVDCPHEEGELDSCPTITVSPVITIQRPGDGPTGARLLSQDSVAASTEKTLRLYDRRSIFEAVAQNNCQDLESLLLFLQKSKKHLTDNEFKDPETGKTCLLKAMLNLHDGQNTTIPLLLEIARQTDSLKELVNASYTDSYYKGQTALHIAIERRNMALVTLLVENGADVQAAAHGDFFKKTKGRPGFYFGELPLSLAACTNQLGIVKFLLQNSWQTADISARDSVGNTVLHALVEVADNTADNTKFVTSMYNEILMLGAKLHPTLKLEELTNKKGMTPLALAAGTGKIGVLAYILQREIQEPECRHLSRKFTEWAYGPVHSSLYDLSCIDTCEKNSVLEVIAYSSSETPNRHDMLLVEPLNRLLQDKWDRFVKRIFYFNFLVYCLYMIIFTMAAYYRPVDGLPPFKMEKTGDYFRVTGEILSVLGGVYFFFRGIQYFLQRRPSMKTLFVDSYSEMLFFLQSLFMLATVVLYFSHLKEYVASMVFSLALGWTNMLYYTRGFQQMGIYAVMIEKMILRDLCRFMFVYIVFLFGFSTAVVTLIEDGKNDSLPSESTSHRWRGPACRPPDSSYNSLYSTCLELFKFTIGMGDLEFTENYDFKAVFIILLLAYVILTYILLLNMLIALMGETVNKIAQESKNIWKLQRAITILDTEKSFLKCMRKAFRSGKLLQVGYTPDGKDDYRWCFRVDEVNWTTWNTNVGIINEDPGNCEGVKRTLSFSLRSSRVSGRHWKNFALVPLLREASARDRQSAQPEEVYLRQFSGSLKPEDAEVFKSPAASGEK
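Cells expressing TRPV1 were dye-loaded with Fluo-8 and read kinetically: 10 s baseline, 3 min after compound (agonist portion), then 2 min after EC20 capsaicin (allosteric enhancer portion). Calcium-bound dye fluorescence at 480/520 nm.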
* = called active by the depositor; ? = inconclusive; . = no result given; [ ] = remark or other dose.

SMILES	TRPML1 inh	ClpP mod	PINK1 expr mod	Menin MLL FP FL	Sfp PPTase inh	TRPML1 ag	TRPV1 potentiator
CC(C)(C)OC(=O)N1CCN(C(=O)[C@H](Cc2ccc(O)cc2)n2cc(CCO)nn2)CC1	4	-0.8%	0.2%	3.3	11%	-0.7	-10
CCCOc1ccc(C(=O)c2nc3c(n2O)CCCC3)cc1	5	-0.8%	.	1.3	2%	1.2	10
CC(=O)c1cccc(NC(=S)NC2CC2)c1	11	-0.6%	-0.3%	2.5	-8%	0.6	28
COc1cc(S(=O)(=O)N(Cc2ccccc2)CC2CCCO2)ccc1-n1cnnn1 (configuration not stated)	13	.	0.5%	-0.4	12%	0.1	0
O=C(CN1C(=O)NC2(CCCCC2)C1=O)N1CCN(S(=O)(=O)c2ccc(F)c(F)c2F)CC1	-21	1.5%	2.2%	.	.	-0.1	11
COc1cc(OC)c(NC(=O)c2noc3c2CSc2ccccc2-3)cc1Cl	-9	-1.9%	1.5%	.	.	2.8	.
Clc1ccc(CSc2snnc2-c2ccccc2)c(Cl)c1	44	0.3%	5.0%	-1.6	-6%	3.7	-7
OC(c1ccccn1)C(O)c1ccccn1 (configuration not stated)	-11	-11%	-1.2%	.	.	-0.4	.
O=C(NCc1ccccn1)c1cccc(S(=O)(=O)Nc2ccc(SC(F)F)cc2)c1	-3	0.7%	0.5%	.	.	0.3	10
Cc1ccc(C(=O)C(C)OC(=O)C2CC(=O)N(C3CCCCC3)C2)cc1 (configuration not stated)	18	-6.3%	-2.4%	-1.9	2%	-0.4	-14
COc1ccccc1NC(=O)c1ccc(NC(=O)CSc2ncn[nH]2)cc1	-6	-3.0%	-0.7%	2.2	2%	-0.5	-8
CCCCC[C@@H](C)N1C[C@H](COCc2ccccc2)Oc2cc(N3CC[C@H](O)C3)ccc2S1(=O)=O	.	?	21%	.	.	-0.1	.
Cc1ccccc1-n1nnnc1SCC(=O)c1c(N)n(C)c(=O)n(C)c1=O	-1	-1.1%	12%	5.5	-14%	-0.1	22
N=c1c2c(ncn1Cc1ccco1)Oc1ccc3ccccc3c1C2c1ccccc1 (configuration not stated)	-18	0.6%	-1.8%	10	22µM*	1.6	4
CC(NC(=O)CSc1ncccn1)c1ccc2c(c1)OCO2 (configuration not stated)	17	-1.5%	-1.6%	.	.	0.7	.
CC(=O)c1sc(NS(=O)(=O)c2ccc(C)cc2)nc1-c1ccccc1	4	.	-0.4%	13	9%	-0.5	-7
COc1ccccc1C(=O)Nc1cccc(C(=O)N2CCOCC2)c1	-17	1.2%	-0.6%	1.7	15%	1.0	-3
Cc1cc(C(=O)N/N=C/c2ccc3ccccc3c2)n[nH]1	7	-22%	7.2%	.	14%	0.2	3
COc1cccc(CN2CCNC(=O)C2CC(=O)N(C)C2CCOCC2)c1OC (configuration not stated)	7	-4.2%	2.4%	.	1%	0.4	0
CC(=O)N1CCN(Cc2nc3cc(NC(=O)Cn4nc(C)c5ccccc5c4=O)ccc3n2C)CC1	-11	-7.3%	1.2%	0.4	18%	-0.2	14
NS(=O)(=O)c1ccc(NNC(=O)c2sccc2Cl)cc1	7	.	2.8%	-2.5	12%	-0.2	?
COc1cc(C)c(NC(=S)Nc2cccc(Cl)c2)cc1OC	-2	-1.9%	-0.5%	3.1	45µM*	0.0	19
O=C(Cc1ccccc1)N1CCC(O)(c2cccnc2)CC1	-16	-0.6%	1.0%	-0.9	19%	-0.6	3
CC(=O)c1ccc(NC(=O)c2cnn3ccccc23)cc1	2	-3.5%	-1.1%	-0.4	25%	0.1	-17
CCc1nc2ccc(C(=O)Nc3cccc(NS(C)(=O)=O)c3)cn2c1N(C=O)CCC(C)C	.	-6.3%	0.7%	.	.	-0.5	.
Brc1cccc(-c2nnc3n2CCC3)c1	25	-1.2%	1.5%[38.3 µM]	1.9	2%	0.6	9
CC(=O)Nc1ccccc1Sc1ccccc1	-6	0.5%	3.1%[38.3 µM]	0.7	4%	-0.5	1
O=C(NCCc1c[nH]c2ccccc12)c1ccc(F)cc1F	-4	.	2.0%	3.4	16%	1.5	-16
COc1cc(C=NNC(=O)c2ccc(NS(=O)(=O)c3cccs3)cc2)cc(Br)c1O	-2	.	-0.8%	.	.	1.1	.
c1ccc(C2CNCCc3ccccc32)cc1 (configuration not stated)	35	1.4%	1.4%	-0.4	6%	-0.3	-6
O=C(/C=C/c1ccccc1[N+](=O)[O-])N1CCN(c2ccccc2F)CC1	9	0.3%	1.1%	-0.5	0%	0.4	-10
CC1=CC(c2ccccc2)n2nnnc2N1 (configuration not stated)	14	.	-0.4%	19	2%	0.4	0
CCn1c(=O)cc(SCC(=O)NCc2ccc(C)o2)c2ccccc21	1	-2.2%	5.9%	-1.5	-7%	1.0	0
O=C(NCCc1ccccc1)/C(=N\O)c1ccccc1	-1	-12%	-2.7%	2.9	3%	0.3	-10
Cc1nonc1C(=O)N/N=C/c1cc2c(cc1Br)OCO2	24	-3.7%	5.7%	4.1	-5%	1.7	10
CCOC(=O)c1csc(NC(=O)CCSc2ccccc2)n1	-13	0.6%	2.6%	2.9	14%	5.4	-2
O=C(c1cccs1)N1C[C@@H](n2cc(C3CC3)nn2)[C@H](O)C[C@@H]1c1ccc(Cl)cc1	41	-2.0%	0.8%	.	.	-0.6	.
COc1ccccc1N1CCN(C(=O)c2cc(=O)c3c(C)cc(C)cc3o2)CC1	-4	-0.4%	2.7%	3.7	-14%	-0.4	7
CCC(C)Cn1c(COc2ccc(OC)cc2)nc2ccccc21 (configuration not stated)	12	-2.8%	-1.6%	.	.	-0.4	.
Cc1cccc(-n2c(SCC(=O)NCc3ccco3)nnc2-c2ccco2)c1	-15	-2.4%	-1.1%[38.3 µM]	3.8	3%	1.6	0
O=C(Nc1ccc(S(=O)(=O)Nc2ncccn2)cc1)C1CC(=O)N(c2ccc(Cl)cc2)C1 (configuration not stated)	6	.	0.0%	.	13%	-0.3	0
O=C(CN1CCc2ccccc21)NC(=O)NCc1ccco1	-20	-0.5%	-2.0%	3.0	-7%	2.2	5
C=CCOC(=O)c1cn(CC)c2nc(C)ccc2c1=O	-7	.	-0.9%	-5.5	18%	0.2	-6
CN(C)S(=O)(=O)c1ccc(Cl)c(NC(=O)COC(=O)CCSc2ccccc2)c1	?	-3.5%	-2.1%	10	5%	2.7	6
Cc1ccc(OCCCC(=O)N(C)CC(=O)Nc2c(C)cccc2C)cc1	4	-0.7%	0.4%	.	.	-0.8	.
Cc1occc1-c1nnc(SCC(=O)N2CCOCC2)n1CCc1ccccc1	0	-1.3%	0.6%	0.8	18%	-0.5	-12
CC(=O)N(C)c1ccc(/C=C2\C=Cc3ccccc32)cc1	.	0.2%	0.2%	.	.	-1.1	.
CC(C)c1ccc(NC(=O)CNC(=O)Cn2cnc3ccccc3c2=O)cc1	4	-0.3%	0.2%	-0.8	1%	0.1	6
COc1ccc(C(=O)NCCCNc2nc3cc(C)cc(C)c3cc2C#N)cc1	2	4.1%	-0.2%	.	.	0.7	.
CCC1=NN(C(=O)CCc2ccccc2)C(O)(C(F)(F)F)C1 (configuration not stated)	0	-2.3%	3.1%[38.3 µM]	4.1	-10%	0.6	-9
COc1cc2ccccc2cc1C(=O)N/N=C/c1ccc2c(c1)OCO2	19	-15%	0.0%	.	8%	-0.2	3
O=C(NCc1ccccc1)c1cncc(Br)c1	48	1.9%	3.9%	1.3	0%	-0.2	15
O=c1c2c(nc3c(-c4ccc(Cl)cc4)c[nH]n13)CCCC2	-12	14µM*	?	5.3	-15%	-0.9	-12
CCOC(=O)C1=C(C)Nc2ccccc2N/C1=N\S(=O)(=O)c1cccc(Cl)c1	-14	2.0%	-0.2%	.	.	3.3	7
COc1ccc([C@H]2[C@H](C(=O)OC(C)(C)C)N3N=Cc4ccccc4C3C23C(=O)c2ccccc2C3=O)cc1OC (some centres not stated)	16	-1.6%	7.9%	2.0	-10%	3.0	-27
Cc1ccc2nc(-c3ccncc3)c(Nc3ccccc3C)n2c1	18	-13%	-1.0%	.	.	-1.1	.
COCCNC(=O)C1CCCN(Cc2ccccc2)CC1 (configuration not stated)	.	-1.7%	1.6%	.	.	0.0	.
COc1ccc(Oc2coc3cc(O)ccc3c2=O)cc1	5	-29%	0.3%	7.9	24%	1.0	-13
O=C(Cc1csc(NC(=O)Nc2cccc(Cl)c2)n1)NC1CCCC1	-1	0.4%	?	.	.	0.7	-11
COc1ccc(Cc2nnc3c4cnn(C)c4ncn23)cc1	-6	0.2%	2.2%[38.3 µM]	2.3	1%	-0.6	3

Other records follow.
SMILES	TRPML1 inh	ClpP mod	PINK1 expr mod	Menin MLL FP FL	Sfp PPTase inh	TRPML1 ag	TRPV1 potentiator
Cc1ccc(S(=O)(=O)Nc2ccccc2C(=O)NCC2CCCO2)cc1 (configuration not stated)	1	?	0.8%	0.6	9%	-0.1	-13
O=C(c1ccco1)N1CCN(Cc2cc(=O)c(OCc3ccccc3)co2)CC1	14	?	0.1%	.	.	0.7	0
COc1ccccc1-c1cc(C(=O)NCc2ccc(Cl)cc2)no1	20	?	8.3%[38.3 µM]	5.4	-3%	3.2	.
CNc1nc(C(=O)O)nc(N2CCOCC2)n1	4	-2.6%	?	-2.9	56µM*	3.8	11
Cc1ccc(S(=O)(=O)N2CCN(CC(=O)Nc3ccc4c(c3)CCC4)CC2)cc1C	-11	0.4%	-0.1%	3.7	2%	2.0	3
CC(=O)c1ccc(OCc2cc(=O)n3ccsc3n2)cc1	13	-12%	4.0%	-6.4	8%	-0.4	-5

Of the compounds above, these have a thiophene ring, fused or not.
SMILES	TRPML1 inh	ClpP mod	PINK1 expr mod	Menin MLL FP FL	Sfp PPTase inh	TRPML1 ag	TRPV1 potentiator
NS(=O)(=O)c1ccc(NNC(=O)c2sccc2Cl)cc1	7	.	2.8%	-2.5	12%	-0.2	?
COc1cc(C=NNC(=O)c2ccc(NS(=O)(=O)c3cccs3)cc2)cc(Br)c1O	-2	.	-0.8%	.	.	1.1	.
O=C(c1cccs1)N1C[C@@H](n2cc(C3CC3)nn2)[C@H](O)C[C@@H]1c1ccc(Cl)cc1	41	-2.0%	0.8%	.	.	-0.6	.

2 compounds from above, reduced to PINK1 expr mod and TRPV1 potentiator:
molecule	PINK1 expr mod	TRPV1 potentiator
CCC(C)Cn1c(COc2ccc(OC)cc2)nc2ccccc21 (configuration not stated)	-1.6%	.
O=C(NCCc1ccccc1)/C(=N\O)c1ccccc1	-2.7%	-10

This is a random part of the collection; about 4.4% have a hit in one of these screens.
